# Screening results (PubChem BioAssay)
# D2 PAM: Beta-Arrestin HTS for Positive Allosteric Modulators of the Human D2 Dopamine Receptor: Potentiators. D(2) dopamine receptor (Homo sapiens), P14416. DiscoveRx D2 beta-arrestin cells, luminescence, 90 min; 100% = 57 uM dopamine signal. potentiation, % (test concentration not listed). 360,000 tested, 0.23% active. AID 624464, 2012; active = potentiation of 50% or more; inconclusive = 30% to 50%; inactive = 30% or less;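 note: compound concentration not given in the record; tested on top of an EC20 dose of dopamine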
#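 D2 cells co-treated with compound plus 50 nM dopamine (EC20) for 90 min at 37 deg C to detect potentiation. Beta-arrestin recruitment was read as enzyme-fragment luminescence after 1 h at ambient temperature. Full response was set by 57 uM dopamine.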
# Sfp inh: qHTS Assay for Inhibitors of Bacillus subtilis Sfp phosphopantetheinyl transferase (PPTase); 4'-phosphopantetheinyl transferase ffp (Bacillus subtilis), Q9F4F7; Biochemical Sfp PPTase activity, qHTS; Potency, µM, for inactives: max response, negative = inhibition, hits mostly inhibitors; 310,000 tested, 3.5% active; active = well fitted inhibition curve with a large enough effect; inconclusive = small, poorly fitted or top-dose-only effect, or another doubt; inactive = no such curve, though single readings can be large or run the other way;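 note: the enzyme is Sfp with the accession as filed and its product quenches rhodamine fluorescence; potency is the fitted concentration of half-maximal effect; 0% = enzyme reaction without inhibitor and -100% = no enzyme wells; top concentration of the series not given in the record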
#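 Buffer: 50 mM Hepes-Na pH 7.6, 10 mM MgCl2, 0.01% Nonidet P-40, 0.01% BSA. Enzyme 15 nM, pre-exposed to compound 15 min; substrates then added and fluorescence change tracked over 30 min.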
# ClpP mod: qHTS Assay for Activators of ClpP. ATP-dependent Clp protease proteolytic subunit (Bacillus subtilis (strain 168)), P80244. purified B. subtilis ClpP, FRET peptide cleavage, 20 min. Potency, µM (doses to about 57.5 µM), inactives show at the top dose activity change, negative = active. 340,000 tested, 1.9% active. AID 651965, 2013; active = well fitted falling curve with a large enough effect; inconclusive = small, poorly fitted or top-dose-only effect; inactive = no such curve, though single readings can be large or run the other way; note: potency is the fitted concentration of half-maximal effect; the source files actives as falling curves though it sought activators and does not explain the sign; nearly all actives have a fitted effect of over 65% in size; many hits overshoot -100%
# Target sequence (P80244 whole entry, looked up): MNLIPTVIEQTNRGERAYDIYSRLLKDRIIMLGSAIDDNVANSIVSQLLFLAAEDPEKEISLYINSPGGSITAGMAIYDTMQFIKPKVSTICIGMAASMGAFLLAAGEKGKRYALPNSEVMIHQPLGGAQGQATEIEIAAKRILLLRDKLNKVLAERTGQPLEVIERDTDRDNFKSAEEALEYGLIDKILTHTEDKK
#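 Purified B. subtilis ClpP, 10 microg/mL final in Tris/HCl pH8 with KCl, BSA, glycerol and Tween-20, cleaved an Abz/nitrotyrosine-quenched decapeptide. Fluorescence (ex 320, em 430) was read at 0 and 20 min at room temperature. Delta was normalized to 5.8 microM ADEP and DMSO/no-enzyme controls.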
# gsp antag: qHTS for Antagonists of gsp, the Etiologic Mutation Responsible for Fibrous Dysplasia/McCune-Albright Syndrome: qHTS. gsp-mutant cells, cAMP HTRF, 30 min; control for the full effect not named in the record. Potency, µM (series often up to 76.9 µM), for the others: at the highest dose activity change, negative = inhibition, most hits filed as inhibitors. 340,000 tested, 0.4% active. AID 624288, 2012; active = falling curve of any shape with a large fitted effect; inconclusive = falling curve, mostly with a smaller effect; inactive = flat or rising curve; cell line not stated here;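 note: intracellular cAMP measured with PDE inhibitor Ro 20-1724 present during compound exposure; potency is the fitted concentration of half-maximal effect; % is set by controls: 0 for no effect and ±100 for the full control effect; nearly all actives have a fitted effect of over 65% in size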
#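 Cells in G418 medium, seeded 16-24 h, 37C; buffer exchange to DPBS + 1 mM CaCl2, 0.5 mM MgCl2, 0.05% BSA; cpds in DMSO + […] (300 uM stock), 30 min 37C; HTRF cAMP detection.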
# TRPV1 potentiator: HTS Assay for Compounds that Act as Potentiators of the Vanilloid Receptor 1; Transient receptor potential cation channel subfamily V member 1 (Homo sapiens), Q8NER1; TRPV1-expressing cells, Fluo-8 calcium influx, capsaicin EC20 potentiation; host cell line not named in the record; control for the full effect not named in the record; potentiation, % at 8.33 µM; 320,000 tested, 0.02% active; AID 540277, 2011; active means potentiation above 80%; inconclusive means 30% to 80%; inactive means below 30%; note: 0% is about no effect
# Target sequence (Q8NER1 whole entry, looked up): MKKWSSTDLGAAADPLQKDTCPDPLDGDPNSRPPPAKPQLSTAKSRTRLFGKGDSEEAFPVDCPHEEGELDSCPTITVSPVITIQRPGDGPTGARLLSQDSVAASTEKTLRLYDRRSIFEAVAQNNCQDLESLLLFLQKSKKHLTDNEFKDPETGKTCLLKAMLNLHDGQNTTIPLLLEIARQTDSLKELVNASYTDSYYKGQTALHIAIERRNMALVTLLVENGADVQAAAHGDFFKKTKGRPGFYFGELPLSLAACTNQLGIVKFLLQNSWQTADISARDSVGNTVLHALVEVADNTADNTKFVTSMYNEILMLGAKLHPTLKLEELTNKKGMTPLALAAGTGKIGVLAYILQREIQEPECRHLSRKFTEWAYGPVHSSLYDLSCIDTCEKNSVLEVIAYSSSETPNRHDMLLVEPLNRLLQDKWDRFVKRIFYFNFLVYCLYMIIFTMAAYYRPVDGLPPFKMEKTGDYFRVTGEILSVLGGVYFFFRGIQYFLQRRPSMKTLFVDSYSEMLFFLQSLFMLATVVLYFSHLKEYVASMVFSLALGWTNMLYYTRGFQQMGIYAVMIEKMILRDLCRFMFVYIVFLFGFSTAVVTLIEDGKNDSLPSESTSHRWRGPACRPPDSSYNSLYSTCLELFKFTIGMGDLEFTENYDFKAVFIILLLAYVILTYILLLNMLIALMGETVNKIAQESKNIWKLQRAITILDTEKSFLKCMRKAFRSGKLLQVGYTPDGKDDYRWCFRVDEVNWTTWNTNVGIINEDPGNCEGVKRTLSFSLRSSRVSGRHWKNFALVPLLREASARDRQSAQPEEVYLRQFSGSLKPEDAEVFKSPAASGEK
#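 Cells expressing TRPV1 were dye-loaded with Fluo-8 and read kinetically: 10 s baseline, 3 min after compound (agonist portion), then 2 min after EC20 capsaicin (allosteric enhancer portion). Calcium-bound dye fluorescence at 480/520 nm.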
# Menin-MLL FL inh: qHTS Assay for Inhibitors Targeting the Menin-MLL Interaction in MLL Related Leukemias: Competition With Fluorescein Labeled MLL-derived Peptide | 290,000 tested, under 10 active | FP activity change, % at 61.4 µM | Fluorescence polarization, fluorescein-MLL peptide displacement from menin | AID 1766, 2009; inconclusive = falling polarisation curve, or a change in total fluorescence; inactive = total fluorescence flat and polarisation flat or rising; no compound was filed as active; the % refers to the polarisation; negative = inhibition;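 note: % of control where 0% means no effect; inhibitors lower the polarisation; unlabelled MLL peptide was the positive control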
# gsp agonist: qHTS for Agonist of gsp, the Etiologic Mutation Responsible for Fibrous Dysplasia/McCune-Albright Syndrome: qHTS | 340,000 tested, 0.13% active | Potency, µM (series often up to 76.9 µM), for inactives: at the highest dose activation (cAMP increase), hits mostly activators | gsp mutant cells, cAMP HTRF, 30 min; control for the full effect not named in the record; active = well fitted activation curve with a large enough effect; inconclusive = small, poorly fitted or top-dose-only effect, or another doubt; inactive = no such curve, though single readings can be large or run the other way; cell line not stated here;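 note: phosphodiesterase inhibitor Ro 20-1724 added with compounds to block cAMP breakdown; potency is the fitted concentration of half-maximal effect; nearly all actives have a fitted effect of over 60% in size; about a fifth of the inactives were tested at one dose only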
#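 Cells stably selected in G418 were plated at 2000/well, grown 16-24 hr, then given compounds in DMSO with the PDE inhibitor […] (300 uM solution added) for 30 min at 37C; cAMP was read by HTRF.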
# * = called active by the depositor; ? = inconclusive; . = not tested or not shown; & = joins results of further samples; [ ] = dose if it differs, or a comment.
SMILES,D2 PAM,Sfp inh,ClpP mod,gsp antag,TRPV1 potentiator,Menin-MLL FL inh,gsp agonist
COC(=O)C(Cc1ccccc1)NC(=O)CSc1nc(C)cc(=O)[nH]1 (stereo not given),-27,21%,1.3%,-3%,-9,0.0,?
COc1ccccc1CNC(=O)CCSCc1cccc(Cl)c1,-6,-4%,-1.6%,6%,-6,0.9,?
O=C(CSc1nccc2ccccc12)N1CCN(Cc2ccc3c(c2)OCO3)CC1,-5,.,.,-5%,.,.,5%[15.4 µM]
COCCCNS(=O)(=O)c1ccc2[nH]c(=O)[nH]c2c1,-5,7%,.,16%,4,-3.2,-5%[15.4 µM]
O=C1CC(c2ccco2)CC2=C1C(c1ccccc1)n1nc(C(F)(F)F)nc1N2 (stereo not given),-7,10µM*,25µM*,-9%,-9&0,11,-15%
C=C1C(C(=O)Nc2ccc(F)cc2)C1C(=O)Nc1ccc(F)cc1 (stereo not given),-9,-12%,-1.8%,-6%,-2,5.4,-6%
CCOc1cc(/C=C(\C#N)C(=O)Nc2ccc(S(N)(=O)=O)cc2)ccc1OCCN1CCOCC1,-41,25%,2.4%,-15%,0,3.3,15%[15.4 µM]
CCOC(=O)Cc1csc(N)n1,-6,2%,-2.8%,10%,-5,-1.4,18%
COc1cccc(NS(=O)(=O)c2ccc3[nH]cc(C(=O)NC4CC4)c(=O)c3c2)c1,24,-8%,-10%,0%,1,-1.6,-19%
O=C(CC12CC3CC(CC(Br)(C3)C1)C2)OCCN1CCCCC1,-9,14%,.,-12%,-8,-3.9,-7%[15.4 µM]
Cc1cc(C)nc(NN2C(=O)/C(=C/c3ccc(O)cc3)SC2=S)n1,-18,-27%,-2.1%,?,0,?,18%
CCOC(=O)C(NC(C)=O)(OCc1ccccc1)C(F)(F)F (stereo not given),4,-8%,?,18%,11,-1.0,-23%
CC1CCN(C(=O)CN2C(=O)C(C)(C)Oc3ccc(C(=O)NC(C)C)cc32)CC1,0,8%,.,-9%,?,-2.1,-20%[15.4 µM]
CSCCC(NC(=O)COc1ccccc1)C(=O)N(C)CC(=O)Nc1c(C)cccc1C (stereo not given),26,.,.,7%,0,.,2%[15.4 µM]
COc1ccc(C(=O)NNC(=S)NC(=O)c2cccs2)cc1,-19,24%,-0.7%,-18%,6,2.0,-67%[inhibitor]
O=C(O)C1CCCN1S(=O)(=O)c1ccc(F)cc1 (stereo not given),-13,27%,0.0%,10%,9,-1.7,-30%[inhibitor]
Cc1onc(-c2c(F)cccc2Cl)c1C(=O)N1CCN(S(C)(=O)=O)CC1,-11,14%,3.1%,1%,21,7.5,-13%
COc1ccc(NC(=O)CC2(CC(=O)O)CCCC2)cc1,-1,4%,.,-2%,20,-2.3,?
Cc1cc(NC(=O)C(=O)c2c(C)[nH]c3ccccc23)no1,-2,16%,.,-4%,9,0.4,3%[15.4 µM]
COc1cc(NS(=O)(=O)c2ccc(N)cc2)ncn1,.,18%&4%&7%,.,.,-1,0.1,.
CCOn1c(-n2nc(C)cc2C)nc2ccccc2c1=O,-1,11%,-0.5%,-3%,6,1.3,6%
O=C(CSc1n[nH]c(-c2ccc(Br)cc2)n1)NC1CCCC1,1,.,-0.2%,-23%,.,.,-23%
Cc1cccc(CSCCNC(=O)CN(c2cc(C)cc(C)c2)S(C)(=O)=O)c1,6,-9%,-0.2%,-9%,-5,0.2,-17%
Cc1ccc(-c2c(C#N)c(N)n(-c3ccc(C)cc3)c(=O)c2C#N)cc1,-6,3%,177%,3%,-3,1.6,21%
N=C1/C(=C\c2ccc(-c3cccc(Cl)c3)o2)C(=O)N=C2SC=C(c3ccccc3)N12,-11,6.3µM*,0.4%,6%,0,16,1%[15.4 µM]
CC(C)=N/N=C1\NC(=O)C(C)S1 (stereo not given),-16,0%,-0.6%,9%,-3,-1.1,8%
Cc1ccc(-c2cc(C(=O)NCc3ccco3)c3ccccc3n2)o1,-3,45µM*,?,-2%,-5,7.0,0%
O=c1[nH]c2c(s1)C(c1ccc(O)cc1)C1C3CCC(C3)C1S2 (stereo not given),2,50µM*,1.0%,-5%,-17,2.5,?
CN(CC(=O)Nc1cccc(F)c1)C(=O)c1ccc(C2SCCS2)cc1,-4,.,-5.5%,-14%,0,.,-17%
CC(C)CN1CCC(C(=O)N2CCN(c3ccccc3F)CC2)CC1,-19,-6%,-4.1%,16%,1,-4.1,-1%
COc1cc(C(C)=O)ccc1OCC(=O)OCCCOC(=O)COc1ccc(C(C)=O)cc1OC,5,3%,-1.6%,-20%,3,-2.9,-3%
Cc1cc(C(=O)N2CCN(c3ncccn3)CC2)sc1-c1ccccc1,8,.,-2.9%,27%,.,.,20%
Nc1ccc(N=Nc2ccccc2)c(N)n1,-2,9%&-6%&-15%&13%,0.3%,5%,11,-3.2,.
Cc1ccccc1NC(=O)Nc1ccc2c(c1)CCC2,-12,24%,1.8%,4%,-9,1.7,-2%
CCOC(=O)NC(=O)/C(N=Nc1cccc(C(F)(F)F)c1)=C(\C)O,-2,26%,.,-15%,-8,-0.9,-6%
COc1cc2c(cc1OC)CN(C1CCC(C(C)(C)C)CC1)CC2 (stereo not given),-23,.,.,7%,.,.,?
COc1ccc(-c2noc(C3CCCN(C(=O)Nc4ccccc4)C3)n2)cc1 (stereo not given),-10,-5%,0.8%,?,-2,-1.1,12%
O=C(CSc1ccc(-c2cccc([N+](=O)[O-])c2)nn1)NCc1ccccc1,5,-14%,.,-23%,6,7.0,10%[15.4 µM]
CCOC(=O)c1ccc(NC(=O)Cn2nnc(-c3ccccc3F)n2)cc1,-17,-3%,?,2%,-4,9.1,1%
CN(Cc1ccco1)C(=O)Cn1c(=O)oc2cc(S(=O)(=O)NCc3ccccc3)ccc21,-4,3%,1.5%,0%,10,2.0,-19%
O=C(Cn1c(NCCO)nc2ccccc21)c1ccc(F)cc1,-3,9%,-0.6%,-2%,2,2.3,-31%[inhibitor]
Cn1c(=O)c2[nH]c(N3CCN(c4cccc(O)c4)CC3)nc2n(C)c1=O,15,12%,.,?,-6,-0.9,1%
O=C(COC(=O)c1ccccc1OC(F)F)Nc1ccc2[nH]c(=O)[nH]c2c1,-5,.,-0.3%,7%,0,.,-1%[15.4 µM]
CCOC(=O)c1ccc(Oc2cn[nH]c2-c2ccc(OCC(=O)NN)cc2O)cc1,-9,4%,-4.1%,-15%,-2,2.6,4%
CCS(=O)(=O)c1nc(S(=O)(=O)c2ccc(Cl)cc2)c(N2CCN(CCO)CC2)s1,-20,23%,0.5%,-4%,8,.,?
C[C@@H]1CN(C(=O)c2cc(COc3cccc(C(F)(F)F)c3)on2)C[C@H](C)O1,-10,7%,-2.2%,3%,?,.,0%
Cc1c(C)n(C)c2ccc(C(=O)NCCCN3CCN(C)CC3)cc12,-23,11%,-13%,-4%,12,1.9,-1%
Cc1ccc(-n2nnnc2C(Cl)c2nnnn2-c2ccc(C)cc2)cc1,-6,?,-0.2%,10%,-12,3.9,-35%[inhibitor]
CCCCc1nnc(NC(=O)CCc2ccccc2)s1,-4,16%,-1.3%,12%,3,-3.1,-1%
CC(=O)Nc1ccc(NC(=O)Cc2sc(C)nc2-c2ccc(C)cc2)cc1,-1,3%,-0.1%,15%,6,4.8,1%[15.4 µM]
# Next structures follow.
SMILES,D2 PAM,Sfp inh,ClpP mod,gsp antag,TRPV1 potentiator,Menin-MLL FL inh,gsp agonist
CCCCOC(=O)C1=C(C)NC(=O)NC1c1ccc(OC)cc1 (stereo not given),0,17%,.,14%,10,-2.2,-132%[inhibitor]
CN(CC(=O)Nc1ccc(F)c(F)c1F)C(=O)Cc1ccc2c(c1)OCCO2,1,4%,-1.0%,9%,17,.,-8%
O=C(COC(=O)COc1ccccc1)Nc1ncc(Cl)cc1Cl,-4,.,-6.4%,-1%,.,.,13%[15.4 µM]
CCCC1=[N+](CC(=O)c2ccccc2)CCn2c(C)ccc21,-10,-28%,-26%,-9%,.,5.5,-6%
CN1CCN(C(=S)Nc2cc([N+](=O)[O-])ccc2Cl)CC1,-12,-29%,-20%,-1%,-11,6.8,?
CC(=O)OC1CCC2C3CCC4OC(=O)CCC4C3CCC12C (stereo not given),-8,.,2.1%,-2%,.,.,-2%[15.4 µM]
Cc1sc2ccccc2c1CNC[C@H]1O[C@@H](n2cnc3c(N)ncnc32)[C@H](O)[C@@H]1O,-3,.,-0.1%,10%,.,.,.
CC(=O)/C=C1/C(=O)Nc2ccccc21,-12,50µM*,0.3%,-27%,-9,0.3,-5%
O=C(c1ccc(N2C(=O)CCC2=O)cc1)N1CCOCC1,2,4%,-1.9%,6%,-34,1.6,-1%
Cc1cccc(-n2c3nc(=O)[nH]c(=O)c-3cc3c(C)nn(-c4ccccc4)c32)c1,.,18%,.,.,0,0.7,.
COc1cc(NS(=O)(=O)c2ccc(OC)c(C)c2C)c(OC)cc1Cl,11,?,0.2%,-24%,-25,-2.3,15%
CC(=O)c1ccc(Nc2nc(N3CCOCC3)nc(N3CCOCC3)n2)cc1,0,1%,-2.3%,-12%,-1,-3.5,-1%
Cc1cccc(-c2nnc(-c3ccc4ccccc4c3)o2)c1,-3,.,.,-19%,.,.,-14%
Cc1ccc(NC(=O)CC2C(=O)N(Cc3ccccc3)C(=S)N2NC(=O)c2ccccc2)c(C)c1 (stereo not given),-12,-10%,-2.5%,-26%,2,1.1,-26%
